Ba CapD inh: blocks the Bacillus anthracis CapD enzyme; z-score (concentration not given with the values); hit rate 0.23% among 140,000; purified CapD enzyme, fluorescence intensity read-out; stronger effect = lower value; some hits fall short of the stated cut;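 active means z-score under -4 in either of two replicates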;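 further: stock transfer was 100 nL into about 40 µL; score is relative to mean and spread of the plate; one replicate is shown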
AID504770: E. coli YBA685 growth inhibition, screen for V. cholerae RctB inhibitors. E. coli YBA685 rctB-dependent plasmid, OD600 growth, 3 h; stronger effect = lower value. z-score (concentration not given with the values). hit rate 0.27% among 130,000;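 active means z-score under -2 on both plates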;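 further: wells of about 30 µL received 100 nL stock; score is relative to mean and SD of the test wells; the first replicate is given; strong numbers were not always called active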
* marks the source's active call; other numbers are inactive results; nt = no result given.

SMILES,Ba CapD inh,AID504770
COc1ccc(NC(=O)CSc2nnc(Cc3cccn3C)n2CCc2ccccc2)c(OC)c1,-0.63,-0.2
O=C(NCc1ccccn1)c1ccc(Cn2cc(Br)cn2)o1,0.18,1.3
O=C(NC1Cc2ccccc2C1)C1CCN(C(=O)OCc2ccccc2)CC1,4.17,-0.6
CC(=O)c1ccccc1N/C=C/C(=O)c1ccc(Oc2ccccc2)cc1,-0.04,nt
O=C1C(=O)N(CCN2CCOCC2)C(c2ccccc2F)/C1=C(\O)c1ccccc1 (configuration not stated),0.045,-0.3
CCOC(=O)c1sc(NC(=O)CSc2nnc(CNC(=O)c3ccccc3OC)n2C)c(C(=O)OCC)c1C,-0.1,nt
COCCN1C(=O)c2ccccc2C(C(=O)NCc2ccccn2)C1c1cn(C)c2ccccc12 (configuration not stated),-0.175,0.55
O=C1NC2(CCCC2)C(=O)N1Cc1ccc(Br)cc1,nt,0.15
CC[N+]1=C(C)C(C)(C)c2cc(-c3ccccc3)ccc21,-0.525,-1.2
O=C(/C=C/c1cccs1)N(Cc1ccccn1)c1nc2ccccc2s1,nt,1.3
COC(=O)c1ccc(OCC(O)CNCC2CCCO2)c(OC)c1 (configuration not stated),nt,0.25
CCOC(=O)c1[nH]c(CSc2nnc(-c3ccncc3)n2CCOC)c(C(=O)OCC)c1C,nt,-2.7
CC1(C)CC(=O)C2=C(C1)N(Cc1ccco1)C1=C(C(=O)c3ccccc31)C2c1ccc(F)cc1 (configuration not stated),-0.625,1.25
O=C1OC(c2ccccc2)=N/C1=C\c1ccco1,-1.77,nt
Cc1ccc(S(=O)(=O)c2cc3c(=O)n4ccccc4nc3n(Cc3ccccc3)c2=N)cc1,-0.46,-0.6

Later entries.
SMILES,Ba CapD inh,AID504770
Fc1ccc(-c2cc3ncnc(NCc4cccs4)c3s2)cc1,nt,0.1
CCn1c(=O)n(-c2ccccc2)c(=O)c2c1c1cc(C)ccc1n2C,110,0.5
CCS(=O)c1scc(-c2ccc(Cl)cc2)c1C#N (configuration not stated),0.08,0.1
O=C(c1nn2c(c1Cl)NC(c1ccc(F)cc1)CC2C(F)(F)F)N1CCN(Cc2ccccc2)CC1 (configuration not stated),-0.725,nt
CN1C(=O)C2C=CC1C1C(=O)N(c3ccccc3)C(=O)C21 (configuration not stated),0.14,1.7
N#Cc1cnc2sc3ccccc3n2c1=N,9.12,nt
COC(=O)C(N)Cc1ccc(O)cc1 (configuration not stated),0.165,-0.65
CCC1CCCCN1CCCNc1nc(=S)[nH]c2ccccc12 (configuration not stated),-0.025,-0.95
N#Cc1nn(-c2ccccc2)c(=O)n(Cc2ccccc2)c1=O,-0.34,-1.25
CC(C)(C)C(=O)NC(=S)Nc1cccc(O)c1,-0.27,0.05
O=C(NC1CCCC1)C1(S(=O)(=O)c2ccc(Cl)cc2)CC1,-0.73,-0.45
Fc1ccc(C2=NC(C(F)(F)F)(C(F)(F)F)N=C(N3CCOCC3)O2)cc1,-0.31,nt
Cc1ccc(OCC2Cn3c(nc4c3c(=O)[nH]c(=O)n4C)O2)cc1C (configuration not stated),nt,0.4
O=C(O)/C=C/c1ccco1,-0.915,0.5
COC(=O)C1=C(C)Nc2ncnn2C1c1ccc2ncccc2c1 (configuration not stated),-0.715,nt

Some of the entries so far, with values under each structure.
Order of values: Ba CapD inh	AID504770
- Cc1ccc(OCC2Cn3c(nc4c3c(=O)[nH]c(=O)n4C)O2)cc1C (configuration not stated)
  nt	0.4
- O=C(O)/C=C/c1ccco1
  -0.915	0.5
- CCC1CCCCN1CCCNc1nc(=S)[nH]c2ccccc12 (configuration not stated)
  -0.025	-0.95

The listing continues:
SMILES,Ba CapD inh,AID504770
CN(C)c1ccc(/C=N/O)c(F)c1C#N,13.9,-0.45
COc1ccc2[nH]c(=O)c(CN(Cc3ccc(C)cc3)C(C)=O)cc2c1,nt,1.5
O=C(C[n+]1ccc(/C=N/O)cc1)N1CCCCC1,9.96,-0.2
Fc1cc(Br)c(-n2cccc2)c(Br)c1,-0.425,0.25
COc1ccc(C2C(C#N)=C(N)N(c3ccc(Br)cc3F)C3=C2C(=O)CCC3)cc1O (configuration not stated),-0.05,nt
CCC(C)C(=O)Nc1ccc(-c2nnc(-c3ccccc3)o2)cc1 (configuration not stated),137,1.55
Cc1c(NC(=O)/C(C#N)=C/c2cccc3ccccc23)c(=O)n(-c2ccccc2)n1C,-0.08,nt
CC(=O)N1CCC(Nc2cccc(S(=O)(=O)C(F)(F)F)c2)CC1,-0.28,nt
COc1ccc(CCn2c(=O)c(C#N)cc3c(=O)n4cccc(C)c4nc32)cc1OC,1.5,-0.1
COc1ccc(C(=O)Nn2c(SCC(=O)NCC3CCCO3)nc3ccccc3c2=O)cc1 (configuration not stated),0.91,nt
CCn1c(Sc2ncnc3c2sc2nc(C)cc(C)c23)nnc1-c1cccs1,0.075,-0.5
Cc1ccnc2nc(C(=O)OCC(=O)Nc3ccccc3)nn12,nt,0.8
COc1cccc(/C=C/C(=O)Nc2c(F)c(F)c(F)c(F)c2F)c1OC,nt,-0.85
NS(=O)(=O)c1ccc(NC(=O)/C=C/c2ccc3c(c2)OCCO3)cc1,nt,0.1
CC(=O)CSc1sc(C(C)=O)c(-c2ccccc2)c1C#N,0.95,nt

Overlap with the part before: 5 compounds; new compounds follow.
SMILES,Ba CapD inh,AID504770
CCn1c(Sc2ncnc3c2sc2nc(C)cc(C)c23)nnc1-c1cccs1,0.075,-0.5
Cc1ccnc2nc(C(=O)OCC(=O)Nc3ccccc3)nn12,nt,0.8
COc1cccc(/C=C/C(=O)Nc2c(F)c(F)c(F)c(F)c2F)c1OC,nt,-0.85
NS(=O)(=O)c1ccc(NC(=O)/C=C/c2ccc3c(c2)OCCO3)cc1,nt,0.1
CC(=O)CSc1sc(C(C)=O)c(-c2ccccc2)c1C#N,0.95,nt
CC(Sc1nnc(COc2ccccc2)n1-c1ccccc1)C(=O)O (configuration not stated),nt,-0.25
COc1cc(C2C(C(=O)Nc3ccccc3)=C(C)Nc3ncnn32)ccc1OCc1ccccc1 (configuration not stated),0.755,nt
CCCNC(=O)Cn1nc(C(F)(F)F)c2c1CCC2,nt,1.65
Cc1ccc2oc(=O)c3cc(C(=O)NCc4ccco4)sc3c2c1,2.04,0.45
CCn1ccnc1P(=S)(N(C)C)N(C)C,nt,-0.2
COCc1cc(=O)[nH]c(SCC(=O)c2ccccc2)n1,-1.04,1.05
O=C(NCc1cccs1)c1ccccc1N1CCOCC1,-0.21,2.5
CCOc1ccccc1C(=O)NC1CCSC1=O (configuration not stated),nt,-0.45
CC(C)N1CCC(=O)NC1=O,nt,0.1
CCOc1cc(/C=C2/SC(N)=NC2=O)ccc1OCc1ccc(F)cc1,2.23,nt
c1coc(CNC2=NCCC2)c1,nt,-0.2
Cn1c(=O)n(CC(=O)Nc2cccc(C(F)(F)F)c2)c(=O)c2ccccc21,0.025,nt
CC1CCCN(C(=O)c2ccc3nc[nH]c3c2)C1 (configuration not stated),nt,-0.65
Cn1cccc1C(=O)NC(=O)CSc1cccc[n+]1[O-],nt,-0.7
O=C1CC(c2ccccc2)CC2=C1CN(C1CCCCC1)CN2 (configuration not stated),0.275,-0.4

Other results
SMILES,Ba CapD inh,AID504770
CC(=O)Oc1cccc(NC(=O)c2ccc3c(c2)C(=O)N(CC(C)C)C3=O)c1,-0.24,-1.5
CC(C)S(=O)(=O)c1csc(C(N)=O)c1Cl,0.19,nt
N#Cc1nc2c(-c3nc4ccccc4s3)c(N)n(CC3CCCO3)c2nc1C#N (configuration not stated),-0.81,-0.55
NC(=O)COC(=O)Cc1ccc(Cl)c(Cl)c1,0.26,1.35
C=CC(=O)N1c2ccccc2C(C)(c2ccc(C)cc2)CC1(C)C (configuration not stated),0.175,nt
COC(=O)CSc1ccc2nnc(-c3ccc(OC)cc3)n2n1,1.11,-1.25
O=C(Nc1cc2cc([N+](=O)[O-])ccc2oc1=O)c1c(F)cccc1F,0.325,nt
Cc1cccc(N(C)c2nc3ccccc3n3cnnc23)c1,-2.4,-0.8
O=C(COC(=O)c1ccccc1)c1cccc(C(F)(F)F)c1,-0.47,-0.15
Cc1ccc([C@H]2[C@@H](C#N)[C@H](C#N)N3CCCN23)cc1,1.16,-0.5
Cc1cc(/C=C2\SC(=Nc3ccc(N4CCOCC4)cc3)N(C)C2=O)c(C)n1-c1cccnc1,0.28,1
CN1C(=O)C(=Cc2ccc(OCc3cccc(Cl)c3)cc2)C(=O)N(C)C1=O,-0.94,nt
CS(=O)(=O)c1csc(C(=O)NCc2cccnc2)c1Cl,-0.26,-0.4
Cc1cc(C)cc(-n2ccnc2SCC(=O)NC2CCCCC2)c1,-0.32,-0.45
CSc1nc2c([nH]c3ccccc32)c(=O)n1-c1ccccc1,0.665,-0.45

(listing goes on)
SMILES,Ba CapD inh,AID504770
COc1ccc(C2NS(=O)(=O)N=C3CCCN32)c(OC)c1 (configuration not stated),nt,0.2
CSC1=NC(C)=C(C(=O)Nc2ccccc2)C2(CCCCC2)C1C(N)=O (configuration not stated),-0.795,-1.05
CC(NS(=O)(=O)c1ccc(Cl)s1)C1CC2CCC1C2 (configuration not stated),nt,-0.35
O=C(NCc1ccco1)C1CCC(Cn2c(SCC(=O)N3CCN(c4ccccc4)CC3)nc3ccccc3c2=O)CC1 (configuration not stated),-0.83,nt
O=C(NCc1ccco1)c1ccc2c(c1)N(Cc1ccccc1)CCS2,83.5,0.2
O=C(CSc1ncnc2ccccc12)N(Cc1ccccc1)Cc1ccccc1,0.285,-0.1
O=C(Cc1ccc(NC(=O)N2CCCCc3ccccc32)cc1)N1CCCCC1,-0.04,-1.85
O=C(COc1ccc(Br)cc1)Nc1cccc(-c2nc3ccccc3o2)c1,2.17,-0.6
Cc1c(CN2CCN(c3ccccn3)CC2)sc2ccccc12,-0.06,-0.05
CC(=O)Oc1c(O)ccc2c(C)cc(=O)oc12,nt,-0.6
COC(=O)c1c(C(=O)OC)c(-c2ccc(OC)cc2)n2c1CS(=O)C2 (configuration not stated),-0.13,nt
Cc1sc(-c2ccc(Cl)cc2)nc1CC(=O)NC1CCOC1=O (configuration not stated),5.72,nt
O=C(O)c1ccc(-c2ccccc2)[nH]1,2.12,-0.8
Cc1ccc(S(=O)(=O)NC(C(=O)NC2CCCCC2)C(C)C)cc1 (configuration not stated),-0.15,2.65
CCOc1ccc(C2C(N3C(=O)c4ccccc4C3=O)C(=O)N2c2ccc(Cl)cc2C)cc1 (configuration not stated),-0.485,nt

(continued)
SMILES,Ba CapD inh,AID504770
COc1cccc2c1Oc1ncccc1N(c1ccc(C(=O)NCc3ccc(C)o3)s1)C2,37.5,-0.95
Cn1c(/C(C#N)=C(\O)c2ccccc2)nc2ccccc21,nt,-0.6
C=CCn1c(SCC)nnc1-c1cccc(C)c1,nt,0.15
COc1cc(CCNC(=O)OCc2ccc(C(C)(C)C)cc2)cc(OC)c1,0.57,nt
CCn1c(C)nc2cc(-c3nnc(Nc4ccc(Cl)cc4)s3)ccc21,nt,0.15
COc1ccccc1OCc1ccc(C(=O)OCC2CCCO2)o1 (configuration not stated),0.42,0.4
O=CNC1CCCc2c1[nH]c1ccc(F)cc21 (configuration not stated),4.5,0.7
Brc1ccc(Cn2nnc(-c3ccc4c(c3)OCO4)n2)cc1,0.755,0.4
O=c1nc(-c2ccc(Cl)cc2)c2ccccc2[nH]1,0.36,2.65
C=CCSc1nnc(NC(=O)C2C(C=C(Cl)Cl)C2(C)C)s1 (configuration not stated),-1.84,1.1
NC(=O)c1ccsc1NC(=O)CSc1ccc(S(=O)(=O)N2CCCCC2)cn1,nt,-0.85
CSc1ncc(-c2ccc(Br)cc2)[nH]1,nt,0
O=C(c1cc2ccccc2oc1=O)N1CCSC1c1ccccc1 (configuration not stated),4.25,0.35
CC/C(CC(=O)C(F)(F)F)=N\NC(=O)/C(C#N)=N/Nc1ccccc1[N+](=O)[O-],-1.73,nt
c1cncc(-c2ncc(-c3ccncn3)c(-c3cccnc3)n2)c1,-0.245,nt

Next part
SMILES,Ba CapD inh,AID504770
O=C(COC(=O)c1ccncc1)Nc1cccc2ccccc12,0.74,1.3
CC(C)CCNC(=O)Nc1cn(C)c(=O)c2ccccc12,25.4,-0.45
CC(=O)Nc1cccc(Oc2nnnn2-c2ccccc2)c1,nt,0.75
CCN1CCCC1CNC(=O)c1ccc2c(c1)sc1nc(-c3ccc(C)cc3)cn12 (configuration not stated),-0.12,-0.6
CCCCc1c(C)nc(N2CCCC2)[nH]c1=O,-0.175,-0.7
S=c1[nH]nc(-c2cccnc2)n1Cc1ccccc1,0.335,-0.6
CC(C)C/C(O)=C/c1nc2cc(Cl)ccc2oc1=O,-0.005,-1.05
COc1ccc(NC(=O)/C=C/C(=O)O)c(OC)c1,-1.35,-0.2
CC(=O)N(c1ccccc1)c1nc(COC(=O)c2cc(C)oc2C)cs1,nt,-0.5
Cc1ccc(Sc2ncccc2NC(=O)c2ccco2)cc1,0.04,-0.55
COc1cnc(-c2ccccc2)nc1Oc1ccc(Cl)c2ccccc12,0.45,nt
CC1CCCCC1NC(=O)C1CCN(Cc2cnn(-c3ccccc3)c2-n2cccc2)CC1 (configuration not stated),2.98,0.2

Complete entries, looked up by structure. Order of values: Ba CapD inh, AID504770
Record of `S=c1[nH]nc(-c2cccnc2)n1Cc1ccccc1` → 0.335, -0.6
Record of `CCN1CCCC1CNC(=O)c1ccc2c(c1)sc1nc(-c3ccc(C)cc3)cn12` (configuration not stated) → -0.12, -0.6
Record of `CCCCc1c(C)nc(N2CCCC2)[nH]c1=O` → -0.175, -0.7

High-throughput results: PubChem BioAssay, ICCB-Longwood Screening Facility, Harvard Medical School
